Biofilm kill mix: mixtures killing C. albicans biofilm. AID 1242. hit rate 0.02% among 120,000. C. albicans biofilm persisters + clotrimazole, fluorescence viability; primary screen in compound mixtures of four per well. inhibition, % at 7.6 µM;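 active = inhibition above 30.3% in the primary screen of four-compound pools, then above 30% when the compound was retested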;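 note: compounds exposed to preformed 24 h biofilms for 48 h; the number belongs to the whole pool; some results filed as inactive read as strong as hits; inactives centre near 12; 0% = biofilm with clotrimazole alone and 100% = kill control; retested singly at about 60 µM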
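Test system: C. albicans biofilms. Buffer or medium: RPMI/MOPS medium, pH 7.0. Timing: 48 h compound exposure at 37 °C. Technique: Alamar Blue fluorescence. Evaluation: percent inhibition of biofilm viability.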
* hit, by the source's call. The list is partial; the hit share may differ from the screen's.

SMILES	Biofilm kill mix
Cc1ccc2[nH]c(=O)c(COC(=O)C3CCCCC3)cc2c1	9
O=C(CSc1nc2ncc(Cl)cc2[nH]1)NC1CCS(=O)(=O)C1 (centres undefined)	12
O=C1c2ccccc2-n2c1nc1ccccc1c2=O	23
O=C(COc1cccnc1[N+](=O)[O-])N1CCc2ccccc21	10
COc1cc2c(cc1OC)C(C1C(=O)CC(C)CC1=O)N(C(=O)CCl)CC2 (centres undefined)	19
O=C(N/N=C/c1ccco1)c1ccc(NC(=O)C2CC2)cc1	7
O=C(Nc1ccccc1)N1CCCN(c2ccc(C(F)(F)F)cc2[N+](=O)[O-])CC1	10
Cc1cc(NC(=O)CC(F)(F)F)n(-c2ccccc2)n1	10
CCOC(=O)/C(C#N)=C\c1ccc(N2CCN(C/C=C/c3ccccc3)CC2)cc1	14
COc1ccc(C2CC(c3ccc4ccccc4c3)=NN2C(=O)CSc2ncccn2)cc1 (centres undefined)	6
CCN1C(=O)c2ccc(C(=O)NCc3ccc4c(c3)OCO4)cc2C1=O	13
CCOc1ccc(-c2cnc(N)n2C)cc1	-2
C#CCOCCOCCOCCNc1nc(N2CCN(C(=O)[C@H](Cc3ccc(O)cc3)n3cc([C@@H](N)C(C)CC)nn3)CC2)nc(N2CCN(C(=O)[C@H](Cc3cc4ccccc4[nH]3)n3cc([C@@H](N)Cc4ccc(O)cc4)nn3)CC2)n1 (some centres undefined)	13
CC(C)(C)NC(=O)NC(=O)CN1CCCCC1	10
CCOC(=O)N1CCC(NC(=O)c2cccs2)CC1	11
FC(F)(F)c1ccc(Cl)c(-n2c(-c3cc(-c4ccco4)[nH]n3)n[nH]c2=S)c1	25
NS(=O)(=O)c1ccc(N2N=C(c3ccccc3)CC2c2ccccc2)cc1 (centres undefined)	14
CC1CCC2(CC1)NC(=O)N(CC(=O)Nc1sc3c(c1C(N)=O)CCC3)C2=O (centres undefined)	2
CCCOc1ccc(C(=O)NC(=S)NNC(=O)c2c(-c3ccccc3)noc2C)cc1	10
CC(=O)c1c(C)[nH]c(C(=O)OCC(=O)Nc2ccc(Cl)c(S(=O)(=O)N(C)C)c2)c1C	3
FC(F)(F)c1cccc(NC(=S)NC2CCCC2)c1	9
Cc1nc2ccccc2n1CC(=O)NCCN1CCOCC1	20
COc1c(C(O)CC(C)C)ccc2c1C(=O)OCc1cc(C)cc(O)c1O2 (centres undefined)	1
CCOC(=O)CN1C2=NCCCN2c2ccccc21	0
Cc1onc(-c2ccccc2)c1C(=O)N1CCN(Cc2ccc3c(c2)OCO3)CC1	0
CCOc1ccc2[nH]cc(C(=O)NCCCN3CCOCC3)c(=O)c2c1	18
O=C(NNc1ncnc2c1cnn2-c1ccccc1)c1cccs1	19
CCN(CC)S(=O)(=O)c1ccc(N2CCCC2)c(C(=O)Nc2ccc(OC)c(Cl)c2)c1	11
COCCCNC(=O)c1ccc(C2SCC(=O)N2Cc2ccco2)cc1 (centres undefined)	19
CNC(=O)c1cccc2cccc(Sc3ccccc3C(=O)O)c12	14
CCOC(=O)Cc1csc(NC(=O)Cc2ccc(Cl)cc2)n1	21
CCCC(=O)NC(c1cccs1)c1cc(Cl)c2cccnc2c1O (centres undefined)	8
CC(=O)Nc1ccc(NC(=O)C(C)OC(=O)/C=C/c2cn(-c3ccccc3)nc2-c2cccnc2)cc1 (centres undefined)	18
CC1CC1C(=O)Nc1nc(-c2cccs2)c(-c2cccs2)s1 (centres undefined)	9
CS(=O)(=O)Nc1cccc(C2=NN(C(=O)c3ccccc3Cl)C(c3ccccc3O)C2)c1 (centres undefined)	17
Cc1ccc2c(CN3CCN(S(=O)(=O)/C=C/c4ccccc4)CC3)cc(=O)oc2c1	8
CC(C)CC1(C)N=C(c2ccccc2)C(=S)N1 (centres undefined)	19
COc1ccc(Cc2n[nH]c(=S)n2NC(=O)Nc2ccc(Cl)c(Cl)c2)cc1	3
COc1ccc(CNC(=S)Nc2ccc(F)c(Cl)c2)cc1OC	13
COc1cccc(-n2c(=O)n(Cc3ccccc3)c(=O)c3[nH]cnc32)c1	7
CC(C)NC(=O)NC(=O)CN1C(=O)NC(Cc2c[nH]c3ccccc23)C1=O (centres undefined)	4
c1ccc(CN=C2Nc3ccccc3CS2)nc1	14
O=C(O)c1cc(N/N=C/c2ccc(N3CCOCC3)s2)ccc1Cl	8
O=C(c1cn(-c2ccccc2)nc1-c1cccc([N+](=O)[O-])c1)N1CCCCC1	12
Cc1ccc(NC(=O)CSc2nc3c(c(=O)[nH]2)CN(Cc2ccc(F)cc2)CC3)cc1C	13
CCOC(=O)C/C(N)=N/N(C)c1ncc(C(F)(F)F)cc1Cl	14
CC(C)OC(=O)c1c(NS(=O)(=O)c2ccccc2)sc2c1CCCC2	15
CCCN1CNC(=S)N(c2ccc(C(=O)OCC)cc2)C1	15
CC(=O)Nc1ccc(OC(=O)Oc2ccc(NC(C)=O)cc2)cc1	21
CCn1cc(C(=O)Nc2ccc(OC)c(S(=O)(=O)N3CCCCC3)c2)c(=O)c2ccc(C)nc21	7
Other records
SMILES	Biofilm kill mix
Cc1c(Cl)cnn1CC(=O)NC1C(=O)N2C(C(=O)O)=C(CSc3nnnn3C)CSC12 (centres undefined)	15
CCOC(=O)c1c(C)[nH]c(C)c1C(=O)COC(=O)c1ccc(O)cc1	-10
Cn1c(NC(=O)c2ccc(Cl)cc2)cc(=O)n(C)c1=O	5
COc1ccc(NC(=O)CSCc2ccc(C)cc2)cc1	19
CCOc1cc(N2CCOCC2)c(OCC)cc1NC(=O)CN1CCC(Cc2ccccc2)CC1	23
CCOc1cc(C(=O)Nc2cc(C)ccc2C)ccc1OCC(=O)N1CCCCC1	8
CCCCNCC1CCCO1 (centres undefined)	22
CCOC(=O)c1cnc2ccc(OCC)cc2c1NCc1ccccc1	12
O=C(COc1ccc(S(=O)(=O)NC2CCCCC2)cc1)NC1CCCCC1	10
Oc1ccc(N=Nc2ccc3c(c2)OCCO3)c(O)c1	26

Molecules above with an NH in an aromatic ring:
SMILES	Biofilm kill mix
Cc1ccc2[nH]c(=O)c(COC(=O)C3CCCCC3)cc2c1	9
O=C(CSc1nc2ncc(Cl)cc2[nH]1)NC1CCS(=O)(=O)C1 (centres undefined)	12
C#CCOCCOCCOCCNc1nc(N2CCN(C(=O)[C@H](Cc3ccc(O)cc3)n3cc([C@@H](N)C(C)CC)nn3)CC2)nc(N2CCN(C(=O)[C@H](Cc3cc4ccccc4[nH]3)n3cc([C@@H](N)Cc4ccc(O)cc4)nn3)CC2)n1 (some centres undefined)	13
FC(F)(F)c1ccc(Cl)c(-n2c(-c3cc(-c4ccco4)[nH]n3)n[nH]c2=S)c1	25
CC(=O)c1c(C)[nH]c(C(=O)OCC(=O)Nc2ccc(Cl)c(S(=O)(=O)N(C)C)c2)c1C	3
CCOc1ccc2[nH]cc(C(=O)NCCCN3CCOCC3)c(=O)c2c1	18
COc1ccc(Cc2n[nH]c(=S)n2NC(=O)Nc2ccc(Cl)c(Cl)c2)cc1	3
COc1cccc(-n2c(=O)n(Cc3ccccc3)c(=O)c3[nH]cnc32)c1	7
CC(C)NC(=O)NC(=O)CN1C(=O)NC(Cc2c[nH]c3ccccc23)C1=O (centres undefined)	4
Cc1ccc(NC(=O)CSc2nc3c(c(=O)[nH]2)CN(Cc2ccc(F)cc2)CC3)cc1C	13
CCOC(=O)c1c(C)[nH]c(C)c1C(=O)COC(=O)c1ccc(O)cc1	-10

(list continues)
SMILES	Biofilm kill mix
CC(C)NC(=O)Cn1nc(C(F)(F)F)c2c1CCC2	6
CCc1ccc2oc(-c3ccc(OC)cc3)cc(=Nc3cccc(C(=O)O)c3)c2c1	26
O=C1/C(=C/c2cccs2)Cc2ccccc21	11
O=C1c2ccccc2C(=O)C12OC2c1ccc(Cl)cc1 (centres undefined)	3
O=[N+]([O-])c1ccccc1NC1CCN(Cc2ccccc2)CC1	26
Cc1cc(NC(=O)CN2CCN(C/C=C/c3ccccc3)CC2)c([N+](=O)[O-])cc1C	18
Cc1nn(-c2ccccc2)nc1-c1nnc(-c2ccc(C(F)(F)F)cc2)o1	16
O=C(Nc1ccccc1)c1ccc2ccccc2n1	16
C/C(Cc1ccccc1)=N\NC(=O)CNC(=O)/C=C\c1ccccc1	6
COc1cc(OC)cc(-c2nn[nH]n2)c1	7
CCOC(=O)N/N=C(/C)c1ccc(N2C(=O)C3CCCCC3C2=O)cc1 (centres undefined)	10
C/C(=N\Nc1ccc(C(=O)O)cc1)c1ccc(S(=O)(=O)NCc2ccco2)cc1	19
O=C(CSc1nc2cc([N+](=O)[O-])ccc2n1-c1ccccc1)NCc1ccc2c(c1)OCO2	25
CCOCCCNC(=O)C(NC(=O)c1ccccc1O)c1ccccc1 (centres undefined)	-3
O=C(NC1CCCCC1)c1cc(-c2ccccn2)nc2ccccc12	10
COC(=O)c1c(C)[nH]c(C(=O)/C=C/c2ccccc2Cl)c1C	7
FC(F)(F)C(Oc1nc(Nc2ccc(Cl)cc2)nc(N2CCOCC2)n1)C(F)(F)F	8
Cn1c(N)c(C(=O)/C=C/c2ccccc2)c(=O)[nH]c1=O	11
Cn1cc(P(=O)(N2CCOCC2)N2CCOCC2)cc1P(=S)(N1CCOCC1)N1CCOCC1	5
CCC(C)NC(=O)CCn1c(-c2ccccc2)cc(C(C)=O)c1C (centres undefined)	18
CN(Cc1ccon1)Cc1cn(C)nc1-c1cccc(Cl)c1	13
C=CCN(C(=O)c1ccccn1)C(C(=O)NCc1ccccc1)c1ccccc1F (centres undefined)	19
CCc1ccc(N(C2C=CS(=O)(=O)C2)S(=O)(=O)c2ccccc2)cc1 (centres undefined)	13
O=C(NNC(=O)c1ccc(Cl)cc1Cl)Nc1ccccc1	11
Cn1nc([N+](=O)[O-])nc1Sc1ccc(Cl)cc1	6
O=C(CN1CCN(C/C=C/c2ccccc2)CC1)NC(=O)NC1CCCCC1	25
Cc1cccc(OCC(=O)N2CCN(c3nnc(-c4ccccc4)c4ccccc34)CC2)c1	16
COc1ccccc1N1CCN(C(=O)COc2cccc(C)c2C)CC1	10
COc1ccccc1OCCCC(=O)NC(C)c1ccccc1 (centres undefined)	1
CC(=O)Nc1ccc2sc(C)nc2c1	-3
COc1ccc(CC(=O)Nn2c(-c3ccccc3)nc3ccccc3c2=O)cc1	9
CNC(=O)COC(=O)c1cc(-c2ccco2)nc2ccccc12	1
Cc1ccc(C(=O)NNC(=O)c2nn(-c3ccc(F)cc3)ccc2=O)cc1	19
NCc1c(O)ccc2ccccc12	18
COc1ccc(CN2CCNC(=O)C2CC(=O)NCCCn2cccn2)c(OC)c1 (centres undefined)	14
CCOC(=O)C1(Cc2ccc(OC)cc2)CCN(C(=O)CN2CCN(CC)CC2)CC1	13
CC(C)NC(=O)NS(=O)(=O)c1cnccc1N1CCCCC1	7
COc1ccc(NC(=S)N(CCN2CCOCC2)Cc2ccccc2F)cc1	24
COc1ccc(CCNC(=S)NCCc2ccc(OC)c(OC)c2)cc1OC	10
Cc1cc(=O)[nH]c(/N=C(\N)Nc2ccc3c(c2)OCCO3)n1	15

Among those listed so far, these have two or more sulfur atoms.
SMILES	Biofilm kill mix
O=C(CSc1nc2ncc(Cl)cc2[nH]1)NC1CCS(=O)(=O)C1 (centres undefined)	12
CC1CC1C(=O)Nc1nc(-c2cccs2)c(-c2cccs2)s1 (centres undefined)	9
CC(C)OC(=O)c1c(NS(=O)(=O)c2ccccc2)sc2c1CCCC2	15
Cc1c(Cl)cnn1CC(=O)NC1C(=O)N2C(C(=O)O)=C(CSc3nnnn3C)CSC12 (centres undefined)	15
CCc1ccc(N(C2C=CS(=O)(=O)C2)S(=O)(=O)c2ccccc2)cc1 (centres undefined)	13

Following part:
SMILES	Biofilm kill mix
O=C(c1cccs1)N(Cc1ccco1)c1nc(-c2ccc(F)cc2)cs1	11
Cc1ccc(-c2cc(-c3n[nH]c(=S)o3)c3ccccc3n2)cc1	21
CCCOCC1CC2(CC(C)(c3csc(N)n3)OC2=O)C(=O)O1 (centres undefined)	10
COc1ccccc1/C=N/NC(=O)c1cccc(OC(F)(F)C(F)F)c1	21
CSc1ccc(/C=N/NC(=O)CNc2ccc3ccccc3c2)cc1	21
N#Cc1cccc(C(c2nnnn2C2CCCC2)N2CCC(Cc3ccccc3)CC2)c1 (centres undefined)	14
COc1ccccc1NS(=O)(=O)c1ccc(N/N=C/C=C/c2ccccc2[N+](=O)[O-])c([N+](=O)[O-])c1	10
NC1=NC(=O)C(CC(=O)Nc2ccc3c(c2)OCO3)S1 (centres undefined)	15
COc1cc(OC)c(OC)cc1/C=C1\Oc2cc(OS(C)(=O)=O)ccc2C1=O	16
CCOc1ccc(NC(=O)CSc2ncnc3c2sc2ccccc23)cc1	15
N[C@@H](CO)c1cn([C@@H](Cc2cc3ccccc3[nH]2)C(=O)N2CCNCC2)nn1	16
CCc1ccc(-c2nc(C)c(CCO)c(=O)[nH]2)cc1	3
CCc1ccc2n(-c3ccc(OC)cc3)c([S-])c(C(=O)Nc3cc(C)cc(C)c3)[n+]2c1	5
CN(C)c1ccc(/C=C(\C#N)c2ccccn2)cc1	-6
Cc1cccc(NC(=S)N2CCCCCC2)c1	11
CCCN(CCC)S(=O)(=O)c1ccc(C(=O)Nc2nnc(COC)o2)cc1	10
COC(=O)N/N=C/c1ccc(OCCSc2ccc(Cl)cc2)c(OC)c1	11
CC(C)=NN1C(=O)c2ccccc2NC1(C)C	31
Cc1cccc(OCC(=O)O/N=C(\N)c2ccc(Br)cc2)c1	21
CCCOc1ccc(/C=N/NC(=S)Nc2ccccc2[N+](=O)[O-])c(O)c1	18
CCS(=O)(=O)c1ccc2oc(SCC(=O)NCc3ccccc3)nc2c1	10
COc1ccc(CCNC(=O)COC(=O)COc2ccc(Cl)cc2)cc1OC	9
O=S(=O)(c1ccc(Cl)cc1)N1CCC(O)(CN2CCN(Cc3ccccc3)CC2)CC1	7
CCOC(=O)c1cnc(-c2ccccc2O)nc1Cl	12
CCC(CC)C(=O)OCC(=O)Nc1cc(OC)c([N+](=O)[O-])cc1C	16
CCCCOc1ccc(CC(=O)NCC(=O)O)cc1	15
CC(=O)Nc1ccc(OCc2cccc([N+](=O)[O-])c2)cc1	-6

Screens from PubChem BioAssay.
